Source: PubChem BioAssay (SRMLSC)
H5N1 CPE = MDCK cell protection from H5N1 avian flu | cytopathic effect, luminescence, 72 h; hits give high values; no value below 0 was filed and about half of the inactive calls have no number; reference of the scale not given here | inhibition, % at 50 µM | 0.07% of 96,000 active | AID 740, 2007; in the data active = inhibition above about 25%
Numbers without * were called inactive; i = inactive.

The first 2 entries, to show the layout:
SMILES	H5N1 CPE
CCOC(=O)c1ccc(N2C(=O)c3n[nH]c(C)c3C2c2ccc(OC)cc2)cc1 (stereo unspecified)	3.6
COc1cc(C(C(=O)NC(C)(C)C)N(Cc2ccc3c(c2)OCO3)C(=O)c2cnccn2)cc(OC)c1OC (stereo unspecified)	i

Main list, previewed entries included:
SMILES	H5N1 CPE
CCOC(=O)c1ccc(N2C(=O)c3n[nH]c(C)c3C2c2ccc(OC)cc2)cc1 (stereo unspecified)	3.6
COc1cc(C(C(=O)NC(C)(C)C)N(Cc2ccc3c(c2)OCO3)C(=O)c2cnccn2)cc(OC)c1OC (stereo unspecified)	i
COc1ccc(-c2cc(-c3cc(OC)ccc3O)[nH]n2)cc1	i
O=C(c1ccco1)c1cn[nH]c1-c1ccc(Cl)cc1O	4.0
CN1C(=O)c2ccccc2N(C)C1c1cccs1 (stereo unspecified)	i
COc1ccccc1-c1cc2nc(C)c(CCC(=O)NC(C)CCc3ccco3)c(C)n2n1 (stereo unspecified)	i
CCCOc1ccc(-c2nc(C#N)c(N3CCC(C(N)=O)CC3)o2)cc1	i
CCc1c(C(=O)N2CCOCC2)csc1C	0.1
Clc1ccc(C2=CC(c3ccco3)n3ncnc3N2)cc1 (stereo unspecified)	i
CC1=CC(=C2C(=O)c3ccccc3C2=O)C=C(C)N1Cc1ccco1	1.2
CCC(=O)Nc1ccc(C(=O)c2ccccc2)cc1	i
CC(C)(C)NC(=O)C(c1ccco1)N(Cc1ccc(F)cc1)C(=O)c1snc(C(N)=O)c1N (stereo unspecified)	2.1
NC(=O)c1ccc[n+](CC(=O)OCCC23CC4CC(CC(C4)C2)C3)c1	2.3
COc1ccccc1-c1nn2c(-c3ccco3)nnc2s1	7.9
COc1cccc(OC)c1NC(=O)Cc1nn(C)c(=O)c2ccccc12	2.5
Cc1c(CNCc2cccs2)c(C(=O)O)c(C)n1Cc1ccccc1	0.4
CCCCn1ccnc1C(=O)c1cc(S(=O)(=O)N2CCOCC2)ccc1C	i
O=C(N/N=C/C(Br)=C\c1ccccc1)c1n[nH]c2c1CCC2	0.9
c1ccc2[nH]c(CSc3nc4ccccc4o3)nc2c1	i
Cc1cc(OCC(=O)OC(C)C)c2c3c(c(=O)oc2c1)CCCC3	i

Grouped by structure: the compounds so far with sulfur (7)
SMILES	H5N1 CPE
CN1C(=O)c2ccccc2N(C)C1c1cccs1 (stereo unspecified)	i
CCc1c(C(=O)N2CCOCC2)csc1C	0.1
CC(C)(C)NC(=O)C(c1ccco1)N(Cc1ccc(F)cc1)C(=O)c1snc(C(N)=O)c1N (stereo unspecified)	2.1
COc1ccccc1-c1nn2c(-c3ccco3)nnc2s1	7.9
Cc1c(CNCc2cccs2)c(C(=O)O)c(C)n1Cc1ccccc1	0.4
CCCCn1ccnc1C(=O)c1cc(S(=O)(=O)N2CCOCC2)ccc1C	i
c1ccc2[nH]c(CSc3nc4ccccc4o3)nc2c1	i

Continuation:
SMILES	H5N1 CPE
CCN(CCCNC(=O)C1CCC(=O)N1Cc1ccc(F)cc1)c1cccc(C)c1 (stereo unspecified)	i
CCn1c(SCC(=O)C(C)(C)C)nnc1-c1cccnc1	i
COc1cccc(NC(=O)c2ccc(CN3CCN(c4ccccc4)CC3)cc2)c1	0.3
N#Cc1ccc(-c2ccccc2)nc1SCC(=O)c1cccc(Cl)c1	i
CN(C)CCNC(=O)c1ccc(COc2ccc(Cl)cc2Cl)cc1	i
O=C(Nc1ccc(Cl)cc1)C1=Cc2ccccc2OC1	i
O=C(CCSc1nnc(-c2ccncc2)o1)Nc1ccc(Cl)cc1	i
CCn1cc(C(=O)O)c(=O)c2cc(OC)ccc21	i
CC1(c2ccc3c(c2)OCO3)NC(=O)N(CC(=O)NCCC2=CCCCC2)C1=O (stereo unspecified)	i
CC1=Nc2ccccc2N=C(NC(=O)CSc2nnnn2-c2ccccc2)C1c1ccccc1 (stereo unspecified)	i
O=C(NCCCn1ccnc1)c1cn(Cc2ccc(F)cc2)nn1	i
O=c1[nH]c2ccccc2n1C1CCCCC1	0.1
C=CCSC1=N/C(=C\c2cc(OC)c3c(c2)OCO3)C(=O)S1	0.2
CCCCOc1cccc(C(=O)Nc2ccc(N3CCN(CC)CC3)cc2)c1	i
COc1ccc(C)c(Cn2c(-c3nonc3N)nc3ccccc32)c1	0.5
O=C(O/N=C1/CCSc2ccccc21)c1ccc(F)cc1	1.1
COc1c(F)c(F)c(C(=O)O)c(Nc2ccc(C)cc2)c1F	i
COC(=O)C1CCN(c2cc(=O)n(-c3ccc(OC)cc3)c(=O)[nH]2)CC1	0.1
COc1ccc(C(=O)OCn2nnc3ccccc3c2=O)cc1OC	i
CCOc1ccc(C2c3c(oc4ccccc4c3=O)C(=O)N2CCCN2CCOCC2)cc1OCC (stereo unspecified)	0.5
COC(=O)CN(Cc1ccco1)S(=O)(=O)c1ccccc1	0.0
CCOC(=O)N1CCC(NC(=O)c2ccc3c(c2)sc2nc(-c4ccccc4)cn23)CC1	0.6
CC1CC(C)CN(CCCNC(=O)c2ccc3c(c2)NC(=O)C(N2CCCCC2)S3)C1 (stereo unspecified)	i
COCc1cc(C)nc2sc3c(=O)oc(C)nc3c12	i
C=CCn1c(SCC(=O)Nc2c(C)n(C)n(-c3ccccc3)c2=O)nc2sc(C)c(-c3ccccc3)c2c1=O	0.1
COc1ccc(S(=O)(=O)NC(C)C(=O)O)cc1 (stereo unspecified)	i
COc1cc(C(=O)NCc2nnc(SCC(=O)N3CCc4ccccc43)o2)cc(OC)c1OC	i
O=C(NCCCN=C1NS(=O)(=O)c2ccccc21)c1ccc(S(=O)(=O)N2CCCCC2)cc1	i
CCCc1nnc(NC(=O)c2cccc(OC)c2)s1	i
COc1ccc(-c2nc3oc4cc(OC)ccc4c(=O)c3c(=O)n2Cc2ccco2)cc1	1.2
O=C(Nc1nc2ccccc2s1)C1CC(=O)N(c2ccc(Cl)cc2)C1 (stereo unspecified)	i
Brc1ccc(-c2csc(NNC3=NCCCCC3)n2)cc1	i
O=C(Cc1ccccc1)Nc1ccccc1N1CCN(c2ccccc2)CC1	i
O=C(O)c1cc2c(s1)CCCC2	0.1
Cc1cc(=O)n2[nH]c(SCc3ccccc3)nc2n1	i
COc1cnc(-c2ccccn2)nc1Oc1cccc(Cl)c1	5.1
CCOC(=O)CSc1nc2ccccc2n1CC(=O)NC(C)(C)C	0.6
N#Cc1ccc(COC(=O)CSc2nnc(C3CCCCC3)n2N)cc1	4.0
COc1cc(C2C(C#N)=C(N)Oc3n[nH]c(C)c32)cc2c1OCO2 (stereo unspecified)	i
CN(C)CCNc1oc(COc2cccc(Cl)c2)nc1C#N	i
Cc1cn(C2CC3OCC3O2)c(=O)[nH]c1=O (stereo unspecified)	0.5
O=C(O)c1cc(-c2ccc(/C=N/Nc3ccc(Cl)cc3)o2)ccc1Cl	i
C=CCOC(=O)C1=C(C)OC(N)=C(C(=O)OCC)C12C(=O)N(CC(N)=O)c1ccccc12 (stereo unspecified)	0.1
CSc1nsc(SC)c1NC(=O)Nc1ccccn1	1.1
COc1ccccc1/C=C/C(=O)OC(C)CN1CCOCC1 (stereo unspecified)	i
COCCOc1cnn(-c2cc(Oc3ccc(C)cc3)ncn2)c(=O)c1Cl	0.5
CC(C)CCNC(=O)Cn1cc2c(n1)CCCCC2	1.5
c1cnc(N2CCN(Cc3c[nH]c4ccccc34)CC2)nc1	i
COCC(C)NC(=O)c1ccc(N(C)C)cc1 (stereo unspecified)	i
CCN(CC)C(=O)c1sc(NC(=O)c2ccc(Br)o2)c(C(=O)OC)c1C	i
CCCn1nc(C(=O)N2CCc3ccccc3C2)c2ccccc2c1=O	1.4
O=C(Nc1ccc(NC(=O)C2CC2)nc1)c1cccc(F)c1	0.1
CCOc1ccccc1C(=O)NCCC(=O)O	i
COc1cc2c(cc1OC)C(c1ccc(-c3cc(Cl)ccc3Cl)o1)=NCC2	i
O=C(COc1ccccc1)N1CCN(c2nnc(-c3ccccc3)c3ccccc23)CC1	i
Cc1ccc(S(=O)(=O)CC(C)N2CCOCC2)c(S(=O)(=O)CC(C)N2CCOCC2)c1 (stereo unspecified)	1.6
CCN(CC)S(=O)(=O)c1cccc(C(=O)Nc2cccnc2)c1	1.6
COC(=O)[C@H](C)NC(=O)Nc1cccc(C(F)(F)F)c1	i
COc1ccc(Oc2nc(C(F)(F)F)nc3ccccc23)cc1	i
O=C(C1CC1)N1CCc2cc(S(=O)(=O)N(CCO)Cc3ccccc3)ccc21	0.4

Quoted at random: three records from the list
SMILES	H5N1 CPE
Cc1ccc(S(=O)(=O)CC(C)N2CCOCC2)c(S(=O)(=O)CC(C)N2CCOCC2)c1 (stereo unspecified)	1.6
O=C(Nc1ccc(NC(=O)C2CC2)nc1)c1cccc(F)c1	0.1
COCCOc1cnn(-c2cc(Oc3ccc(C)cc3)ncn2)c(=O)c1Cl	0.5

Remaining list, next part
SMILES	H5N1 CPE
COc1ccc(N2CC(C(=O)Nc3ccc(F)cc3F)CC2=O)cc1 (stereo unspecified)	i
CC(=O)n1cc(C2C(=O)CC(C)(C)CC2=O)c2ccccc21	i
CCOC(=O)c1sc2nc3n(c(=O)c2c1C)CCC(C)CC3 (stereo unspecified)	1.7
CCOC(=O)C(NC(C)=O)(N1CCOCC1)C(F)(F)F (stereo unspecified)	i
COc1ccc(NCC(=O)Nc2ccc(C#N)cc2)cc1Cl	i
CCOC(=O)N1CCC(N2CC34C=CC(O3)C(C(=O)Nc3ccc(OCC)cc3)C4C2=O)CC1 (stereo unspecified)	1.9
N=c1sccn1CC(=O)Nc1ccc2c(c1)CCC2	i
CCNc1nc(NC(C)C)nc(N(C#N)CCOc2ccc(Cl)cc2Cl)n1	2.7
O=C(c1ccccc1)c1ccccc1N/C=C/c1nnnn1-c1ccccc1	1.0
CC(=O)Nc1ccc(S(=O)(=O)NCC2CCC(C(=O)NCCC3=CCCCC3)CC2)cc1 (stereo unspecified)	i
COc1cccc(-n2c(C)nnc2SCC#N)c1	i
CCCc1cc(C(=O)Cc2ccc(F)cc2)c(O)cc1O	0.8
CS(=O)(=O)N(Cc1ccccc1)c1ccc(C(=O)Nc2ccc3c(c2)OCO3)cc1	i
COCCCNC(=O)c1ccc2c(c1)CCN2S(C)(=O)=O	0.0
Nc1nc2n(n1)C(c1ccccc1Cl)CC(c1ccc(F)cc1)N2 (stereo unspecified)	2.1
Cc1cc(=O)n2nc(N3CCCC(C(=O)NCc4ccco4)C3)sc2n1 (stereo unspecified)	12.4
CN(c1ccc(C(=O)NCCC2=CCCCC2)cc1)S(C)(=O)=O	2.1
O=C(NCc1ccc2c(c1)OCO2)c1nn2cccnc2c1Cl	0.0
COc1ccc(/C=N/OCC(=O)N2CC3(C)CC2CC(C)(C)C3)cc1 (stereo unspecified)	3.1
CCOC(=O)c1ccc(NS(=O)(=O)c2ccc(SC)cc2)cc1	0.8
COc1ccc(-c2ccc(-c3nnn(CC(C)=O)n3)cc2)cc1	0.0
COc1ccc(NC2c3ccccc3C(=O)N2c2cccnc2)cc1Cl (stereo unspecified)	i
CCN(CCCNC(=O)c1c(C)cc(=O)oc1C)c1ccccc1	1.6
O=C(OCC(=O)N1CCN(C(=O)c2ccco2)CC1)c1cc(-c2ccc(Cl)c(Cl)c2Cl)nc2ccccc12	i
COCCN1Cc2cccc(C(=O)Nc3ccc(C)c(C)c3)c2C1=O	2.3
COc1ccc(NC(=O)CN2CCN(CC(=O)Nc3cc(OC)cc(OC)c3)CC2)cc1	i
CCOC(=O)C1=C(CSc2nc(-c3ccccc3)ccc2C#N)OC(N)=C(C#N)C1c1cccnc1 (stereo unspecified)	i
Cc1cc(C)n(Cc2ccc(NC(=O)c3c([N+](=O)[O-])c(C)nn3C)cc2)n1	i
CSC1=N/C(=C\c2ccccc2)C(=O)N1C	3.8
CCCc1cc(=O)[nH]c(Nc2ccc(OC)c(Cl)c2)n1	i
CCCn1c(CN2CCCCC2CC)nc2c1c(=O)n(C)c(=O)n2C (stereo unspecified)	3.5
CO/N=C(\Cn1ncc(NC2CCCCC2)c(Br)c1=O)c1ccc(Cl)cc1	i
CCOC(=O)c1sc2nc(CC(=O)OC)nc(N3CCN(c4ccc(OC)cc4)CC3)c2c1C	0.2
CC1CN(C(=O)c2ccc(C(=O)c3ccccc3)cc2)CC(C)O1 (stereo unspecified)	0.1
CC(C(=O)NC(=O)NC1CCCCC1)N1CCN(C(c2ccccc2)c2ccccc2)CC1 (stereo unspecified)	0.2
CN(C)c1nc(SCC#N)nc(N(C)C)n1	i
CC(C)(C)c1ccc(-c2nnc(SCC(=O)c3ccc4c(c3)OCCO4)o2)cc1	i
COc1cccc(N2C(=O)Nc3ccccc3C2(O)C(=O)NCc2ccc3c(c2)OCO3)c1 (stereo unspecified)	0.2
COc1ccc(C(CC(=O)O)NC(=O)c2ccccc2)cc1OC (stereo unspecified)	0.9
CCC(C)NC(=O)C1c2ccccc2C(=O)N1Cc1ccccc1OC (stereo unspecified)	0.3

Filtered by structure: those above with a CF3 group (three)
SMILES	H5N1 CPE
COC(=O)[C@H](C)NC(=O)Nc1cccc(C(F)(F)F)c1	i
COc1ccc(Oc2nc(C(F)(F)F)nc3ccccc23)cc1	i
CCOC(=O)C(NC(C)=O)(N1CCOCC1)C(F)(F)F (stereo unspecified)	i

The list continues:
SMILES	H5N1 CPE
C/C(CC(=O)Nc1cc(C)ccn1)=N\NC(=O)COc1cccc(C)c1	i
COCCNC(=O)CN(c1cc(Cl)ccc1OC)S(C)(=O)=O	i
CCn1cc(/C=N/N=C2\CCC3C4CCc5cc(O)ccc5C4CC[C@]23C)c(C)n1 (stereo partly specified)	i
Cc1ccc(OCc2nnc(SCC(=O)c3ccccc3)n2Cc2ccco2)cc1	i
CCc1ccc(NC(=O)CCS(=O)(=O)c2cccc3nsnc23)cc1	0.3
COc1ccccc1C1C(C#N)=C(N)N(c2cccnc2)C2=C1C(=O)CC(C)(C)C2 (stereo unspecified)	i
CCOCCCNS(=O)(=O)c1cc(Br)cc2c1N(C(=O)C1CC1)CC2	0.1
COc1ccc(N2C(=O)C3CCCN3C2c2cccc(C)c2)cc1 (stereo unspecified)	0.9
COC(=O)c1ccc(/C=N\NC(=O)c2ccc(C)cc2Cl)cc1	0.6
CCc1nn(-c2ccccc2)c2c1-c1cc(OC)c(OC)cc1C1(N2)C(=O)Nc2ccccc21 (stereo unspecified)	12.7

This is a subset, so the mix of outcomes need not match the whole.
